Screening data: PubChem, National Center for Advancing Translational Sciences (NCATS)
VDR inh = Inhibitors of the vitamin D receptor (VDR): qHTS | Vitamin D3 receptor (Homo sapiens), P11473 | VDR-SRC2-3 peptide fluorescence polarization, 2 h | Potency, µM, inactives show max response, negative = inhibition, actives largely listed as inhibitors | 400,000 compounds, 0.93% hits; active = well fitted inhibition curve with a large enough effect; inconclusive = small, poorly fitted or top-dose-only effect, or another doubt; inactive = no such curve, though single readings can be large or run the other way; note: series mostly up to about 120 µM
Target sequence (P11473 whole entry, looked up): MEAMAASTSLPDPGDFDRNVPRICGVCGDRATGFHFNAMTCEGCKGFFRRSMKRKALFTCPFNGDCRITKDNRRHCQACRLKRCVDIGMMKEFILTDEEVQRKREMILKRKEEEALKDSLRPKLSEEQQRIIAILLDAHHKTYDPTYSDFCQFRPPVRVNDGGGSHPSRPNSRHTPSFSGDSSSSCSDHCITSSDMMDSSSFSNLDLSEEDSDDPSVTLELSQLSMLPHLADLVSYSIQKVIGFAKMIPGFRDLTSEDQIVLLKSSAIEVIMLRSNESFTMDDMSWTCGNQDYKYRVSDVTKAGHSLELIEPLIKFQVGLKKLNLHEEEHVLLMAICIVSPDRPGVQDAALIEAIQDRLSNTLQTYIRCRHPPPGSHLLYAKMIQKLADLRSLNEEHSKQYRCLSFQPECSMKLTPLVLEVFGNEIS
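Compounds are added to VDR with labelled SRC2-3 coactivator peptide and held 2 h at room temperature. Inhibition of the VDR–peptide interaction is then read as a change in fluorescence polarization.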
* = called active by the depositor; [ ] = dose if it differs, or a comment. % is set by controls: 0 for no effect and ±100 for the full control effect; potency is the fitted concentration of half-maximal effect.

CCCCn1c(SCC(=O)Nc2cc(C)on2)nc2ccccc2c1=O was read as VDR inh -2%.
O=C(c1cccc(Cl)c1)n1nc(-c2cccnc2)nc1NCc1ccccc1 was read as VDR inh 6%.
For CC(C)NC(=O)CN1CCN(c2ncccn2)CC1 the results were VDR inh 17%.
`COc1cccc(CNC(=O)C2CCN(C(=O)N3CC(C)Oc4ccccc43)CC2)c1` (centres undefined) gave VDR inh -4%.
COCCN(C(=O)COc1ccccc1)c1nnc(-c2cccnc2)s1 was read as VDR inh -13%.
CCCCCCCCNC(C)C(O)c1ccc(SC(C)C)cc1 (centres undefined) was read as VDR inh inconclusive.
For CCNC(=O)c1ccc2nc(CCc3ccccc3)oc2c1 the results were VDR inh 13%.
For CCOC(=O)c1csc(NC(=O)c2ccc(OCC)cc2)n1 the results were VDR inh -14%.
Screening COc1ccc(C(=O)Nc2ccccc2C(=O)N2CCOCC2)cc1 returned VDR inh -11%.
`Cn1cccc1C(=O)N1CCC2(CCCN(C(c3ccccc3)c3ccccc3)C2)CC1` gave VDR inh -21%.
`COc1ccccc1/C=C/CN1CCC(n2nccc2NC(=O)CCc2ccccc2)CC1` gave VDR inh 7%.
O=[N+]([O-])c1ccc(N/N=C/c2c[nH]c3ccccc23)cc1 was read as VDR inh inconclusive.
For Cc1sc(N2C(=O)C3C(C2=O)[C@H]2C=C[C@@H]3C2)c(C#N)c1C (some centres undefined) the results were VDR inh -1%.
`CN1CCN(c2ccc(S(=O)(=O)N3CCCCC3)cc2NC(=O)COc2ccc([N+](=O)[O-])cc2)CC1` gave VDR inh -10%.
`C=C(C)C(=O)Nc1ccc(NC(C)C)cc1` gave VDR inh 8%.
`COc1ccc(NC(=O)CN2C(=O)CCn3nc(-c4cccn4C)cc32)cc1Cl` gave VDR inh 15%.
`CCOc1ccc(C(=O)COC(=O)c2cc(=O)[nH]c3ccccc23)cc1` gave VDR inh -14%.
Screening CCc1noc(C)c1C(=O)N1CCCSC1=Nc1ccccc1 returned VDR inh -20%.
CCN(CCCNC(=O)c1cc2c(=O)n(C)c3ccccc3c2s1)Cc1ccccc1 was read as VDR inh 0%.
Screening Cc1ccc(NC(=O)CCCc2nc(-c3ccco3)no2)cc1Cl returned VDR inh -3%.
Screening CCOC(=O)N1CCN(C(=O)Nc2ccccc2)CC1 returned VDR inh 6%.
O=C1CCC(C(=O)NCc2cccnc2)N1 (centres undefined) was read as VDR inh -18%.
`O=C1CN(C(=O)c2cc3ccccc3o2)c2ccccc2N1` gave VDR inh -11%.
`CCOCCCNC(=S)Nc1ccc2nc(N3CCCC3)cc(C)c2c1` gave VDR inh 1%.
Screening O=C1c2oc3ccccc3c(=O)c2C(c2cccc(O)c2)N1c1nncs1 (centres undefined) returned VDR inh -9%.
O=S(=O)(CCN1C=CC(C(F)(F)F)=NCC1)c1ccc(F)cc1 was read as VDR inh -19%.
Screening N#Cc1cnn(-c2ccccc2)c1N returned VDR inh -3%.
Screening O=C(/C=C/c1ccccc1)c1ccc2ccccc2c1 returned VDR inh inconclusive.
For COc1cc(CCC(=O)OCc2ccccc2C#N)cc(OC)c1OC the results were VDR inh -18%.
CCOC(=O)C1CCN(C2CC(=O)N(c3cccc(Cl)c3)C2=O)CC1 (centres undefined) was read as VDR inh 1%.
For CCOc1ccc(CCNC(=O)Nc2cccc(OC)c2)cc1OCC the results were VDR inh 13%.
CC1(C)Cc2c(cnn2-c2ccccc2)C(=O)/C1=N\NC(=O)c1ccccc1N was read as VDR inh 3%.
For O=C1CCc2cc(S(=O)(=O)NC(Cc3ccccc3)C(=O)NCC3CCCO3)ccc2N1 (centres undefined) the results were VDR inh -16%.
Screening CC(C)NC(=O)c1cc2cc([N+](=O)[O-])ccc2s1 returned VDR inh -8%.
CC(NC(=O)c1ccncc1)c1ccc(Cl)cc1Cl (centres undefined) was read as VDR inh 1%.
CC1CC(C)CN(S(=O)(=O)c2ccc3c(c2)oc(=O)n3CC(=O)NCc2cccnc2)C1 (centres undefined) was read as VDR inh 0%.
Screening O=C(C1CCN(S(=O)(=O)c2cccc3cccnc23)CC1)N1CCN(c2ccc(Cl)cc2)CC1 returned VDR inh 4%.
Screening Cc1nn2c([nH]c(=O)c3ccccc32)c1C=O returned VDR inh -5%.
For CCN1C(=O)C2(SC(NC(C)=O)=NN2C(C)=O)c2cc(C)cc(C)c21 (centres undefined) the results were VDR inh 4%.
`CC(C)CNC(=O)COC(=O)c1ccc(Cl)c(S(=O)(=O)N2CCc3ccccc32)c1` gave VDR inh 30%[activator].

Reprinted at random: 3 records from the list, in no set order.
`CCOCCCNC(=S)Nc1ccc2nc(N3CCCC3)cc(C)c2c1` gave VDR inh 1%.
`COc1cccc(CNC(=O)C2CCN(C(=O)N3CC(C)Oc4ccccc43)CC2)c1` (centres undefined) gave VDR inh -4%.
Screening O=C1c2oc3ccccc3c(=O)c2C(c2cccc(O)c2)N1c1nncs1 (centres undefined) returned VDR inh -9%.

The list goes on:
CCC(=O)Nc1ccc(C(=O)NNC(=O)Cc2ccccc2)cc1 was read as VDR inh -27%.
For O=C(N/C(=C/c1cccs1)C(=O)N1CCCCCC1)c1ccccc1 the results were VDR inh 9%.
Screening CCN1CCN(C(c2cccs2)C(C)NC(=O)C(C)C)CC1 (centres undefined) returned VDR inh -4%.
Cc1ccccc1C(=O)Nc1cccc(N)c1 was read as VDR inh 7%.
COC(=O)[C@@H](NC(=O)O[C@@H]1C(=O)c2ccc(OC)cc2O[C@H]1c1ccc2c(c1)OCO2)C(C)C was read as VDR inh -1%.
Screening O=S(=O)(c1cccc(S(=O)(=O)N2CCC(Cc3ccccc3)CC2)c1)N1CCOCC1 returned VDR inh 4%.
Screening Cc1ccnc2nc(C(=O)OCC(=O)Nc3ccc([N+](=O)[O-])cc3Br)nn12 returned VDR inh -9%.
For OCC1(CCOc2ccccc2)CCN(CCCn2cccn2)CC1 the results were VDR inh 0%.
For O=C(c1ccc(OC2CCN(Cc3ccccn3)CC2)cc1)N1CCCC(O)C1 (centres undefined) the results were VDR inh -4%.
For Cc1cccc(OCCCC(=O)Nc2nccs2)c1 the results were VDR inh 3%.
For O=C(CNC(=O)c1cnccc1C(F)(F)F)c1cccc(Cl)c1 the results were VDR inh -2%.
`CCC(=O)N(C)CCc1cc2c(c(OC)c1/C=N/NS(=O)(=O)c1ccc(C)cc1)OCO2` gave VDR inh 6%.
`CN1C(c2ccc(F)cc2)=CS/C1=C(/C#N)c1nnc2n1-c1ccccc1SC2` gave VDR inh 19%.
For Cc1cccc(CCNS(=O)(=O)c2ccc(S(=O)(=O)N3CCCCC3)cc2)c1 the results were VDR inh -28%.
Screening Cc1ccc(C(CNS(=O)(=O)c2ccc([N+](=O)[O-])cc2)N2CCN(C)CC2)cc1 (centres undefined) returned VDR inh -6%.
CCCNC(=O)NC(=O)CN1CCCC1c1ccc2c(c1)OCCO2 (centres undefined) was read as VDR inh 3%.
`OC(CCCN1CCCCC1)(c1ccccc1)c1ccc(C(F)(F)F)cc1` (centres undefined) gave VDR inh -23%.
`CS(=O)(=O)Nc1ccc(C(=O)N2CCCCC2)cc1` gave VDR inh 16%.
`COc1ccc(/C=C(/NC(=O)c2ccccc2)C(=O)Nc2cccc(C(=O)O)c2)cc1` gave VDR inh 15%.
Screening C=CCn1c(COc2ccc(OC)cc2)nc2ccccc21 returned VDR inh 2%.
Screening O=C(Oc1cc(=O)oc2ccccc12)c1ccco1 returned VDR inh 7%.
`O=C(O)c1ccc(/C=N/NC(=S)NC2CCCCC2)cc1` gave VDR inh -13%.
For O=C(O)CSc1nnc(COc2cccc3ccccc23)n1Cc1ccccc1 the results were VDR inh 3%.
`CCOc1cc(/C=N/NC(=O)c2cccnc2)cc(Br)c1OCC(N)=O` gave VDR inh -5%.
Cc1ccc(C(=O)NNc2c3ccccc3nc3ccccc23)cc1 was read as VDR inh 2%.
CC(NC(=O)COC(=O)C12CC3CC(CC(O)(C3)C1)C2)c1ccccc1 (centres undefined) was read as VDR inh 13%.
For COC(=O)NCCOc1cc(C)ccc1C the results were VDR inh 1%.
For CSc1ncc(Cl)c(C(=O)Nc2cccnc2)n1 the results were VDR inh 11%.
Screening COC(=O)C1=C(C)N(c2ccc(C)c(C)c2)/C(=C/c2ccc(O)cc2)C1=O returned VDR inh 3%.
For CS(=O)(=O)N1CCN(CC(=O)NC2CCCCC2)CC1 the results were VDR inh 3%.
For Cc1ccc(NC(=O)Cc2coc3ccc(C(C)C)cc23)cc1Cl the results were VDR inh 25%.
For Cc1cc(NC(=O)c2sc(Nc3ccc(F)c(Cl)c3)nc2N)no1 the results were VDR inh -9%.
Screening COc1ccc(Cc2nnc(NC(=O)C3CCCO3)s2)cc1OC (centres undefined) returned VDR inh -15%.
CCSc1ncc(Cl)c(C(=O)Nc2ccc(S(=O)(=O)Nc3onc(C)c3C)cc2)n1 was read as VDR inh 11%.
`COc1ccc(C(=O)N2CCN(Cc3ccccc3C(F)(F)F)CC2)cc1` gave VDR inh 5%.
Cc1ccc(C)c(NC(=O)C2CCN(S(=O)(=O)c3c(C)noc3/C=C/c3cccs3)CC2)c1 was read as VDR inh -22%.
Screening COc1ccc2c(-c3ccc(OCCN4CCCCC4)cc3)c(-c3ccccc3OC)sc2c1 returned VDR inh 10%.
For Cc1ccc(NC(=S)NCc2ccccc2)cc1C the results were VDR inh -22%.
For CC(=O)Nc1ccc(/C=N/NC(=O)c2cccc(S(=O)(=O)N3CCOCC3)c2)cc1 the results were VDR inh 6%.
Screening COc1cc(/C=C/C(=O)O)cc(S(=O)(=O)Nc2ccccc2Cl)c1OC returned VDR inh -4%.

Brought forward from above: 7 compounds, then new ones.
CCSc1ncc(Cl)c(C(=O)Nc2ccc(S(=O)(=O)Nc3onc(C)c3C)cc2)n1 was read as VDR inh 11%.
`COc1ccc(C(=O)N2CCN(Cc3ccccc3C(F)(F)F)CC2)cc1` gave VDR inh 5%.
Cc1ccc(C)c(NC(=O)C2CCN(S(=O)(=O)c3c(C)noc3/C=C/c3cccs3)CC2)c1 was read as VDR inh -22%.
Screening COc1ccc2c(-c3ccc(OCCN4CCCCC4)cc3)c(-c3ccccc3OC)sc2c1 returned VDR inh 10%.
For Cc1ccc(NC(=S)NCc2ccccc2)cc1C the results were VDR inh -22%.
For CC(=O)Nc1ccc(/C=N/NC(=O)c2cccc(S(=O)(=O)N3CCOCC3)c2)cc1 the results were VDR inh 6%.
Screening COc1cc(/C=C/C(=O)O)cc(S(=O)(=O)Nc2ccccc2Cl)c1OC returned VDR inh -4%.
O=C(COC(=O)CSc1ccc2ccccc2c1)NC1CC1 was read as VDR inh 13%.
For CC(C)c1cc(NC(=O)c2ccccc2)cc(C(C)C)c1O the results were VDR inh 11%.
`CCc1nc2ccccc2n1CC(=O)N1CCN(Cc2ccccc2)CC1` gave VDR inh 0%.
Screening Cc1cc(C(=O)Nc2cc(C)on2)on1 returned VDR inh -20%.
For COC(=O)c1noc(-c2ccc(C)cc2)n1 the results were VDR inh 9%.
For CC(C)n1c(NCCc2ccccc2)nc2c1c(=O)n(C)c(=O)n2C the results were VDR inh -7%.
For N#Cc1c(/N=C/C=C/c2ccccc2)sc2c1CCCC2 the results were VDR inh inconclusive.
CCOc1ccc(S(=O)(=O)N2CCCC(C(=O)NCc3cccnc3)C2)cc1Cl (centres undefined) was read as VDR inh -7%.
Cc1cccc(-c2nnc(-c3ccc(N)cc3)o2)c1 was read as VDR inh -7%.
For CN(C)c1ccc(C(C(=O)NCc2ccccc2)N(Cc2ccco2)C(=O)c2snc(C(N)=O)c2N)cc1 (centres undefined) the results were VDR inh 16%.
CN(C)CCNC(=O)c1c(CSc2ccc(Cl)cc2)noc1C(=O)NCc1ccccc1 was read as VDR inh -15%.
For Cc1cc(=O)[nH]c(SCC(=O)O)c1C#N the results were VDR inh -2%.
For CCn1c(CNc2ccc(C)cc2)nnc1SCC(N)=O the results were VDR inh -6%.
Screening Cc1ccc(S(=O)(=O)N/N=C/c2ccccc2O)cc1 returned VDR inh 3%.
For CCCCn1c(N)c(N(CC(C)C)C(=O)c2ccc(OC)c(S(=O)(=O)N3CCOCC3)c2)c(=O)[nH]c1=O the results were VDR inh -9%.
For CC(C)CC1Nc2ccc(C(=O)NCCCN3CCCCC3C)cc2NC1=O (centres undefined) the results were VDR inh -13%.
For O=C(CN1CCN(C(=O)c2ccco2)CC1)NCc1ccc(Cl)cc1 the results were VDR inh -5%.
For CC(=O)C1=C(C)NC2(O)c3ccccc3C(=O)C12O (centres undefined) the results were VDR inh -18%.
`CC(C)c1c(O)nc(SCc2ccc(F)cc2)[nH]c1=O` gave VDR inh -17%.
Screening CCOC(=O)C1=C(c2ccccc2)Nc2ncnn2C1c1cccc(O)c1 (centres undefined) returned VDR inh 10%.
`COc1ccc(N(CC(=O)Nc2ccccc2OC)S(=O)(=O)c2ccc(NC(C)=O)cc2)cc1` gave VDR inh -16%.
For COCCn1c(C)cc(C(=O)COc2ncnc3ccc(Br)cc23)c1C the results were VDR inh 6%.
Screening COC(=O)C1CCN(Cc2c(C(=O)N3C[C@@H](C)O[C@@H](C)C3)nc3ccc(Cl)cn23)CC1 returned VDR inh 16%.

Only part of the results is shown; count on the stated rates, not on these rows.
